High-throughput results from PubChem BioAssay.
SARS PLpro yeast: qHTS of Yeast-based Assay for SARS-CoV PLP. AID 485353, 2010. Potency, µM (highest dose often 32.9 µM), without a hit: top-dose activity, positive = growth rescue. 330,000 tested, 0.19% active. S. cerevisiae expressing SARS-CoV PLpro, growth rescue; control for the full effect not named in the record; also: 0% is about no effect; nearly all actives have a fitted effect of over 55% in size; growth read by luminescence after 48 h
StopGo reporter: High Throughput Screening for Foot and Mouth Disease Virus Antivirals | human cells with a luciferase reporter of 2A StopGo recoding; control for the full effect not named in the record | Potency, µM (series often up to 57.9 µM), without a hit: at the highest dose signal change, negative = less light | 410,000 tested, 1.2% active | AID 1159524, 2015; active = well fitted falling curve with a large enough effect; inconclusive = small, poorly fitted or top-dose-only effect; inactive = no such curve, though single readings can be large or run the other way; tested in HEK293T cells; also: % is scaled to controls: 0 for no effect and ±100 for the full control effect; nearly all actives have a fitted effect of over 45% in size; luciferase light after 4 h
Cruzain inh Det: qHTS Assay for Promiscuous and Specific Inhibitors of Cruzain (with detergent); purified cruzain, Z-FR-AMC fluorescence, 0.01% Triton; 200,000 tested, 0.43% active; AID 1478, 2009; Potency, µM, without a hit: max response, negative = inhibition, usual class: inhibitors; active = well fitted curve in the direction sought with a large enough effect; inconclusive = small, poorly fitted or top-dose-only effect, or another doubt; inactive = no such curve, though single readings can be large; an effect the other way counts as inactive or inconclusive;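 also: plate controls were neutral wells for no effect and buffer without enzyme for full effect; nearly all actives have a fitted effect of over 40% in size; top concentration of the series not given in the record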
Target sequence (P25779 123-467 limits assumed): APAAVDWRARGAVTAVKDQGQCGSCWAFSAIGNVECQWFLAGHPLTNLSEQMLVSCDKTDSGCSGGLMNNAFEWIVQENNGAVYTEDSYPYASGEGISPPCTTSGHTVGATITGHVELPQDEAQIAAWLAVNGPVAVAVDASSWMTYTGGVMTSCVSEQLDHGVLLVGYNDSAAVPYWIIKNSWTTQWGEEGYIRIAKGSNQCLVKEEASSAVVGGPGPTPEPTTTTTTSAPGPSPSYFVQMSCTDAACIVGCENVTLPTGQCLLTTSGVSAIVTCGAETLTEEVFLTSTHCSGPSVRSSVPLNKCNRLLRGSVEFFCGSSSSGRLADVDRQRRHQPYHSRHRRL
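Purified cruzain (1.5 nM final) was preincubated with compounds for 15 min at room temperature in 100 mM sodium acetate pH 5.5, 5 mM DTT, 0.01% Triton X-100. Reaction started with 2 uM Z-FR-AMC; AMC fluorescence change over 60 s gave activity.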
RE007 growth inh: qHTS Assay for Inhibitors of the HIV-1 protein Vpr | S. pombe RE007 Vpr strain, BacTiter-Glo ATP luminescence, 24 h; control for the full effect not named in the record | Potency, µM (highest dose often 92.2 µM), without a hit: top-dose activity change, negative = less growth | 360,000 tested, 0.21% active; active = well fitted falling curve with a large enough effect; inconclusive = small, poorly fitted or top-dose-only effect; inactive = no such curve, though single readings can be large or run the other way;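 also: % is scaled to controls: 0 for no effect and ±100 for the full control effect; nearly all actives have a fitted effect of over 50% in size; the assay follows cell death caused by Vpr and the record does not say whether a fall means rescue or toxicity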
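Fission yeast RE007 carrying one integrated HIV-1 vpr copy, seeded at OD 0.01 in PMG+AL medium with 23 nL pinned compound. Grown 24 h at 30 degrees; viability read by BacTiter-Glo luminescence after 5 min.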
Cruzain noTriton: qHTS Assay for Promiscuous and Specific Inhibitors of Cruzain (without detergent). 200,000 tested, 2.3% active. Cruzipain (Trypanosoma cruzi), P25779. Potency, µM, without a hit: max response, negative = inhibition, actives largely listed as inhibitors. purified cruzain, Z-FR-AMC fluorescence, no detergent. AID 1476, 2009; active = well fitted curve in the direction sought with a large enough effect; inconclusive = small, poorly fitted or top-dose-only effect, or another doubt; inactive = no such curve, though single readings can be large; an effect the other way counts as inactive or inconclusive;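 also: plate controls were enzyme without inhibitor for no effect and buffer without enzyme for full effect; nearly all actives have a fitted effect of over 40% in size; top concentration of the series not given in the record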
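Detergent-free condition (0.00005% Triton X-100) in acetate buffer pH 5.5 with DTT. 1.5 nM enzyme and compound were pre-mixed 15 min, then 2 uM Z-FR-AMC substrate added; reaction progress from fluorescence change between first and third reads (60 s).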
LASV entry inh: qHTS for Inhibitors of binding or entry into cells for Lassa Virus; Lassa virus pseudotype entry inhibition, cell reporter; control for the full effect not named in the record; Potency, µM (doses to about 37.9 µM), inactives show top-dose activity change, negative = inhibition, usual class: inhibitors; 300,000 tested, 1.2% active; AID 540256, 2011; active means well fitted inhibition curve with a large enough effect; inconclusive means small, poorly fitted or top-dose-only effect, or effect the other way; inactive means flat fitted curve, though single readings scatter; tested in HEK293 cells; also: % is scaled to controls: 0 for no effect and ±100 for the full control effect; nearly all actives have a fitted effect of over 50% in size; luciferase read-out
NS1 inh: qHTS Assay for Inhibitors of Influenza NS1 Protein Function; S. cerevisiae slowed by influenza A NS1, growth recovery by OD600; Potency, µM (doses to about 46.1 µM), without a hit: top-dose activity, positive = more growth; 270,000 tested, 0.4% active; also: actives are rising curves; nearly all actives have a fitted effect of over 50% in size
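Read-out: OD600 growth recovery of NS1-expressing budding yeast. Cells grown overnight at 30C in -URA glucose medium, washed, resuspended and diluted 1:100 in 2% galactose assay medium, pH 6.0. Same strain lacking NS1 served as positive control.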
MARV entry inh: qHTS for inhibitors of binding or entry into cells for Marburg Virus; Marburg virus pseudotyped entry inhibition, cell reporter; control for the full effect not named in the record; about a third of the inactives were read at about 46 µM; Potency, µM (highest dose often 37.8 µM), for inactives: top-dose activity change, negative = inhibition, usual class: inhibitors; 300,000 tested, 1.8% active; active = well fitted inhibition curve with a large enough effect; inconclusive = small, poorly fitted or top-dose-only effect, or effect the other way; inactive = flat fitted curve, though single readings scatter; tested in HEK293 cells; about a fifth of its hits are not listed in these tables; also: % is scaled to controls: 0 for no effect and ±100 for the full control effect; luciferase read-out
An asterisk follows results filed as active; ? = inconclusive; . = not tested or not shown; & = joins results of further samples; [ ] = remark or other dose. Unless noted, calls follow the shape of the dose curve; as a rule, active means well fitted rising curve with a large enough effect; inconclusive means small, poorly fitted or top-dose-only effect; inactive means no such curve, though single readings can be large or run the other way. Potency is read from the fitted curve at half-maximal effect. The order is random (roughly 4.7% active in at least one column).

SMILES	SARS PLpro yeast	StopGo reporter	Cruzain inh Det	RE007 growth inh	Cruzain noTriton	LASV entry inh	NS1 inh	MARV entry inh
CC(C)Oc1ccc(C(=O)Nc2ncn[nH]2)cc1	3%	57%[activator]	.	19%	.	-1%	-4%	3%
CCNC(=S)Nc1ccc(-c2nc3ccccc3[nH]2)cc1	-3%	29%	.	1%	.	?	.	?
O=C(N/N=C/c1sc(N2CCOCC2)nc1-c1ccccc1)c1ccc(O)cc1	0%	-1%	.	-6%	.	?	2%	-9%[46.1 µM]
CCOc1ccc(S(=O)(=O)NC2CCCCCC2)cc1	-1%	48%[activator]	.	-2%	.	1%	-33%	9%
O=C(CSc1ccccc1)NCc1ccc(F)cc1	0%	53%[activator]	.	19%	.	?	-6%	?
COc1ccccc1NS(=O)(=O)c1cc(NC(=O)c2ccccc2F)ccc1N1CCOCC1	-1%	103%[activator]	.	-4%	.	.	.	?
COc1cccc(CNC(=O)C2CCCN(S(=O)(=O)c3c(C)n[nH]c3C)C2)c1 (centres undefined)	1%	-8%	-0.7%	-10%	0%	-21%	-2%	2%
O=C(COc1ccccc1)NCCSCc1ccccc1Cl	-2%	65%[activator]	.	-8%	.	7%	-6%	0%[46.1 µM]
CCOc1ccccc1-n1c(SCC(N)=O)nnc1-c1ccccc1	-7%	2%	1.9%	-7%	-7%	2%	7%	-27%
CCc1cc2c3c([nH]c2cc1S(=O)(=O)NCCCOC)CC(C)(C)CC3=O	0%	32%[activator]	.	-14%	.	.	-3%	.

The final 2 entries of the section above lead into the next:
SMILES	SARS PLpro yeast	StopGo reporter	Cruzain inh Det	RE007 growth inh	Cruzain noTriton	LASV entry inh	NS1 inh	MARV entry inh
CCOc1ccccc1-n1c(SCC(N)=O)nnc1-c1ccccc1	-7%	2%	1.9%	-7%	-7%	2%	7%	-27%
CCc1cc2c3c([nH]c2cc1S(=O)(=O)NCCCOC)CC(C)(C)CC3=O	0%	32%[activator]	.	-14%	.	.	-3%	.
CC(=O)c1ccc(NC(=O)c2cccc(NC(=O)N3CCSc4ncccc43)c2)cc1	.	-14%	-7.4%	.	-18%	29%[46.1 µM]	.	.
O=C(NCc1cccnc1)C(=O)NCC(c1ccco1)N1CCN(c2ccc(F)cc2)CC1 (centres undefined)	?	?	3.1%	14%	-6%	?	9%	5%
Cc1nn2c(c1-c1ccc(Cl)cc1)N=C(c1ccco1)CC2c1ccccc1 (centres undefined)	-14%	-4%	-9.9%	11%	-20%	?	6%	?
CC(C)(C)C1CCc2c(sc3nc(-c4cc5cc(Cl)ccc5oc4=O)[nH]c(=O)c23)C1 (centres undefined)	.	-3%	-1.0%	.	0%	-3%[46.1 µM]	.	.
O=C(Nc1ccccc1F)C1CCN(C(=O)Cc2ccccc2)CC1	4%	5%	5.7%	2%	3%	-2%	-9%	22%
N#Cc1ccc(C23CC4(C2)[C@H](CN(CC2CCCCC2)[C@@H]4c2ccccc2)C3c2ccccc2)cc1 (some centres undefined)	-4%	6%	4.8%	-14%	-14%	.	3%	.
CCc1ccccc1NC(=O)N1CCc2ccccc2C1	0%	15%	.	-7%	.	.	-13%	.
CCOCCCN(C(=O)c1snc(C(N)=O)c1N)C(C(=O)NC1CCCC1)c1ccc(OC)cc1 (centres undefined)	0%	-7%	.	0%	.	0%[46.1 µM]	0%	?
Nc1nnc(SCC(=O)N2CCN(c3ccccc3)CC2)n1-c1ccccc1	4%	17%	0.6%	1%	6%	20%	-2%	27%&27%
CCCC(=O)Nc1nnc(SCC(=O)N2CCN(c3ccccc3)CC2)s1	2%	-16%	.	2%	.	.	9%	.
CCOC(=O)N1CCN(C(=O)c2ccc(Cl)c(S(=O)(=O)N3CCOCC3)c2)CC1	2%	-9%	8.0%	-1%	3%	17%	-2%	.
COc1ccc(S(=O)(=O)NCc2csc(-c3cccnc3)n2)cc1	-1%	-3%	0.2%	1%	-3%	.	9%	.
O=C(CSc1nc2ccc(Nc3nc(N4CCOCC4)nc(N4CCOCC4)n3)cc2s1)Nc1ccccc1Cl	1%	-18%	.	17%	.	?	12%	?
CCc1nn(CC(=O)N(C)Cc2ccccc2)c(=O)c2cc3sccc3n12	.	-19%	-5.0%	.	2%	.	.	-28%[46.1 µM]
N#CCCn1cc(/C=N/O)c(-c2ccc(F)cc2)n1	6%	-21%	-3.1%	-5%	7%	17%	5%	?
O=C1CCCN1CC#CCN1CCCC1	0%	-17%&-13%&-7%&-17%	6.2%&3.0%&-2.9%	10%	4%&-11%&-10%	-2%	1%&7%	12%&12%&29%&12%&12%&12%&12%&12%&12%
Cc1cccc2cc3c(N)c(C(=O)N4CCc5ccccc54)sc3nc12	-1%	15%	-5.5%	6%	?	-2%	13%	5%
COc1ccccc1CC(=O)N(Cc1ccccc1)c1cccc(C)c1	-3%	-13%	.	6%	.	?	-54%	-19%[46.1 µM]
CCC1(c2ccccc2)NC(=O)N(CC(=O)NC2CCCC2)C1=O (centres undefined)	2%	-1%	.	-9%	.	0%	.	-10%
Cc1ccc(N2CCN(C(=S)c3ccc(-c4cccc([N+](=O)[O-])c4)o3)CC2)cc1	1%	-1%	.	10%	.	.	-3%	.
CC(C)N(C(=O)COC(=O)c1cccc(S(=O)(=O)N2CC3(C)CC2CC(C)(C)C3)c1)C(C)C (centres undefined)	-3%	?	.	8%	.	-18%	.	?
O=C(Nc1ccccc1NC(=O)c1ccccc1F)c1ccccc1F	0%	-16%	.	-3%	.	2%[46.1 µM]	-12%	3%[46.1 µM]
COc1ccc(NC(=O)COc2ccccc2)cc1NC(=O)c1ccco1	3%	-2%	.	-8%	.	-29%	-28%	?
Cc1nn(C)c(C)c1/C=C/C(=O)c1ccccc1	-5%	20%	-5.9%	-3%	5%	10%	-49%	?
CCOC(=O)C(C)(C)N(Cc1ccc(C)cc1)S(=O)(=O)c1ccc(Cl)c([N+](=O)[O-])c1	-38%	25µM*	-5.8%	81%	-1%	?	-20%	?
CCN(CC(=O)Nc1cccc(OC)c1)C(=O)c1ccc(C)s1	6%	-15%	3.6%	-1%	-5%	12%	-4%	-4%
CN1CCN(c2ccc(NC(=O)COc3ccc(Cl)cc3Cl)cc2)CC1	-5%	-23%	-16%	-3%	-30%	?	-7%	?
O=C(CNC(=O)c1cccc(F)c1)N/N=C/c1cc(Br)ccc1OC(=O)/C=C/c1ccco1	-25%	-16%	-6.8%	15%	?	?	7%	18µM*
CCOC(=O)N1CCN(C(=O)c2cccc(N3C(=O)NC4CC3(C)Oc3ccc(Cl)cc34)c2)CC1 (centres undefined)	.	?	.	7%	.	-16%[46.1 µM]	-5%	-11%[46.1 µM]
O=C(Nc1ccc(-c2nc3ccccc3c(=O)o2)cc1)c1ccco1	7%	68%[activator]	-8.8%	1%	7%	9%	-1%	2%
COc1ccc(S(=O)(=O)Cc2ccc(C(=O)N3CCN(c4ccccc4F)CC3)o2)cc1	5%	?	0.1%	4%	23%	.	-42%	-2%
C/C(=N\O)C(C)(C)Nc1cccc(Br)c1	-2%	?	.	-10%	.	.	3%	.
COc1cc(/C=C(/C#N)c2ccc(C)cc2)ccc1Oc1ccc([N+](=O)[O-])cn1	4%	.	4.9%	-8%	25µM*	4%	11%	-9%
CCN(CC)C(=O)CSc1nnc(CNc2ccc(F)cc2)o1	-1%	16%	4.1%	16%	3%	?	-6%	5%
Cc1ccc(NC(=O)COc2ccc3oc4c(c3c2)CCCC4)cc1C	.	-25%	-1.7%	.	2%	1%[46.1 µM]	.	9%[46.1 µM]
Cc1ccc(-n2cnc3cc(C(=O)NCc4ccc(F)cc4)ccc32)c(C)c1	.	-14%	0.8%	.	10%	?	.	.
COc1ccc(OC)c(Nc2sc(C(=O)c3ccccc3)c(N)c2S(=O)(=O)c2ccccc2)c1	.	21%	-1.6%	.	7.9µM*	?	.	?
Cc1ccc(OC(C)C(=O)N2CC(=O)Nc3ccccc32)cc1 (centres undefined)	4%	-6%	.	-1%	.	16%[46.1 µM]	13%	27%[46.1 µM]
O=S1(=O)NC(=NCc2ccco2)c2ccccc21	-1%	22%	-1.1%	16%	-1%	7%	?	-4%
COc1cnn(-c2ccc([N+](=O)[O-])cc2)c(=O)c1Cl	.	22%	.	15%	.	11%	.	-1%
O=C(Cn1nnc2ccccc21)N/N=C/c1ccco1	-4%	-1%	0.6%	3%	2%	0%[46.1 µM]	-1%	13%
COc1ccc(-c2nsc3c(N4CCN(C(=O)c5ccco5)CC4)ncnc23)cc1	1%	?	-7.8%	4%	?	-2%	-54%	-4%
Cc1cc2c(cc1NS(=O)(=O)c1ccc(F)cc1)n(C)c(=O)c(=O)n2C	.	-6%	-1.8%	.	-8%	1%[46.1 µM]	.	.
Cc1ccc(CNC(=O)c2cc(C3CC3)nc3c2c(C)nn3-c2cccc(Cl)c2C)cc1	.	-13%	-1.1%	.	-6%	27%[46.1 µM]	.	.
COc1ccc(-n2nc(C(=O)NCc3cc(OC)ccc3OC)c3c4ccccc4n(C)c3c2=O)cc1	1%	-6%	.	-2%	.	11%[46.1 µM]	.	?

Three entries drawn at random from those above:
SMILES	SARS PLpro yeast	StopGo reporter	Cruzain inh Det	RE007 growth inh	Cruzain noTriton	LASV entry inh	NS1 inh	MARV entry inh
COc1ccc(-n2nc(C(=O)NCc3cc(OC)ccc3OC)c3c4ccccc4n(C)c3c2=O)cc1	1%	-6%	.	-2%	.	11%[46.1 µM]	.	?
COc1ccc(-c2nsc3c(N4CCN(C(=O)c5ccco5)CC4)ncnc23)cc1	1%	?	-7.8%	4%	?	-2%	-54%	-4%
Cc1ccc(CNC(=O)c2cc(C3CC3)nc3c2c(C)nn3-c2cccc(Cl)c2C)cc1	.	-13%	-1.1%	.	-6%	27%[46.1 µM]	.	.
